VACV mCherry inh = vaccinia inhibition (mCherry reporter). Vaccinia virus mCherry reporter infection, fluorescence; about a quarter of the inactives have no number. Potency, µM (top dose mostly 36.5 µM), for the others: at the highest dose activity change, negative = inhibition, most hits filed as inhibitors. hit rate 0.63% among 310,000; active = well fitted inhibition curve with a large enough effect; inconclusive = small, poorly fitted or top-dose-only effect; inactive = no such curve, though single readings can be large or run the other way; tested in A549 cells; further: nearly all actives have a fitted effect of over 35% in size; inactives centre near -10
VACV Venus inh = vaccinia inhibition (Venus reporter). Vaccinia virus Venus reporter expression, fluorescence. Potency, µM (series often up to 36.5 µM), inactives show top-dose activity change, negative = inhibition, actives largely listed as inhibitors. hit rate 0.46% among 330,000; active means well fitted inhibition curve with a large enough effect; inconclusive means small, poorly fitted or top-dose-only effect; inactive means no such curve, though single readings can be large or run the other way; tested in A549 cells; further: nearly all actives have a fitted effect of over 30% in size; inactives centre near -10
The depositor's hits bear a star; i = inactive; ? = inconclusive; · = not tested or not shown; & = joins results of further samples; [ ] = dose if it differs, or a comment. On the % scale 0 is the no-effect control and ±100 the full control effect; potency means the concentration at half of the fitted maximal effect. Rows were taken by chance; any-hit rate near 0.82%.

SMILES	VACV mCherry inh	VACV Venus inh
COc1ccc(C)cc1NC(=O)CCNC(=O)Cn1cnc2ccccc2c1=O	-20%	-9%
CC(C)Nc1nnc(SCC(=O)Nc2ccc3c(c2)C(=O)c2ccccc2C3=O)s1	?	?
COc1ccc2ccccc2c1CN1CCOc2ccc(CN3CCN(CCO)CC3)cc2C1	-10%	-7%
O=c1c(O)c(-c2ccccc2)oc2cc(O)cc(O)c12	-21%	-12%
Nc1nnc(C(c2ccccc2)c2ccccc2)s1	-24%	-18%
COc1cc(NC(=O)COc2cc(O)c3c(c2)OC(C)(C)CC3=O)cc(OC)c1	-9%	-14%
O=C(COC(=O)/C=C/c1cccs1)Nc1nc(-c2ccccc2)cs1	-8%	-29%
Nn1c(SCC(=O)N2CCCc3ccccc32)nnc1-c1ccc(Cl)cc1	?	-16%
COc1cccc(-c2nc(CS(=O)(=O)CC(=O)NCc3ccc4c(c3)OCO4)c(C)o2)c1	-29%	-13%
COc1ccc(CCNS(=O)(=O)c2cccc([N+](=O)[O-])c2)cc1OC	-6%	-13%
O=C(CNC(=O)c1cccc(F)c1)N/N=C/c1cccc([N+](=O)[O-])c1	i	-11%
Oc1cccc2ccc(/C=C/c3c(F)cccc3Cl)nc12	?	-7%
NC(=O)C(Cc1ccccc1)NS(=O)(=O)c1ccc(N2CCCC2=O)cc1 (centres undefined)	i	-14%
Nc1ccc(C(=O)N/N=C2/CN3CCC2CC3)cc1	-3%	8%
CC(C)C(=O)Nc1cccc(C(=O)N2CCCCC2C)c1 (centres undefined)	-28%	-29%

Given with two lines to a compound: part of the list above
Below each SMILES – VACV mCherry inh	VACV Venus inh
> Oc1cccc2ccc(/C=C/c3c(F)cccc3Cl)nc12
    ?	-7%
> NC(=O)C(Cc1ccccc1)NS(=O)(=O)c1ccc(N2CCCC2=O)cc1 (centres undefined)
    i	-14%

A run of entries of the results above:
SMILES	VACV mCherry inh	VACV Venus inh
COc1ccc(C)cc1NC(=O)CCNC(=O)Cn1cnc2ccccc2c1=O	-20%	-9%
CC(C)Nc1nnc(SCC(=O)Nc2ccc3c(c2)C(=O)c2ccccc2C3=O)s1	?	?
COc1ccc2ccccc2c1CN1CCOc2ccc(CN3CCN(CCO)CC3)cc2C1	-10%	-7%
O=c1c(O)c(-c2ccccc2)oc2cc(O)cc(O)c12	-21%	-12%

Later entries
SMILES	VACV mCherry inh	VACV Venus inh
COc1ccc([C@H]2CC(=O)C=C(c3ccc(OC(F)(F)F)cc3)C2)cc1	-14%	-17%
COc1ccc(CCNC(=O)c2ccc3c(c2)ncn3-c2ccc(C(C)C)cc2)cc1OC	-17%	-12%
NC(=S)NN=C(Cc1ccccc1)Cc1ccccc1	?	?
CCCCCNC(=O)c1ccc2c(=O)[nH]c3c(C(=O)NCC4CCCO4)sc(=S)n3c2c1 (centres undefined)	-15%	-3%
Nc1ncc(S(=O)(=O)NCc2ccccc2)cn1	-2%	-13%
COC(=O)c1ccccc1NC(=S)NC(NC(=O)COc1ccccc1)C(Cl)(Cl)Cl (centres undefined)	-18%	-7%
Cc1cc(OCC(=O)NC2CC(C)(C)NC(C)(C)C2)c(C)cc1Br	-27%	-16%
COCc1cc(CN2CCCC2)c(O)c2ncccc12	14µM*	?
CCOC(=O)C1CCN(C(=O)c2ccc(C)o2)CC1	-21%	-6%
N#CCN1CCC/C1=C\[N+](=O)[O-]	i	5%
Cc1cccc(N2C(=O)CC(Sc3nccc(C)n3)C2=O)c1 (centres undefined)	i	-10%
Cc1cc(C)n(C(=O)c2cccc(S(=O)(=O)N3CCOCC3)c2)n1	-14%	-13%
CCc1cccc(C)c1NC(=O)c1cnn(-c2ccc(F)cc2)c1-n1cccc1	-4%	11%
COc1cc2c(=O)n(CCC(=O)NCC3CCCO3)c(=O)n(CC(=O)Nc3ccc(C)cc3)c2cc1OC (centres undefined)	-13%&-14%	3%&-10%
CCN(CC)CCCN(Cc1cc2cc3c(cc2[nH]c1=O)OCCO3)C(=O)Nc1ccc(F)cc1	-26%	-22%
CC(=O)c1ccc(C(=O)N2CCc3c(cnc(C)c3CNC(=O)c3ccc4c(c3)OCO4)C2)s1	-3%	-6%
Cc1ccc2onc(CC(=O)N3CCN(c4cc(Cl)ccc4C)CC3)c2c1	-8%	-14%
c1ccc(CN=C2NN=C(c3ccccc3)CS2)cc1	-16%	-13%
Cc1ccc(S(=O)(=O)N(C)CC(=O)O/N=C(\N)c2cccnc2)cc1	i	-16%
CCCN(CCC)C(=O)Cn1c(=O)n(CCCCCC(=O)NCc2ccccc2Cl)c(=O)c2sccc21	-14%	-18%
S=C(NCCC(c1ccccc1)c1ccccc1)Nc1ccccc1Cl	·	-13%
COc1cccc(NC(=O)CN(C)C(=O)C2=COCCO2)c1	-12%	-14%
COc1ccccc1N1C(=O)NC(=O)/C(=C/c2ccc([N+](=O)[O-])s2)C1=O	-6%	13%
CCSc1nc2sccc2c(=O)n1-c1ccccc1	i	1%
Cn1c(=O)[nH]c(=O)c2c1nc(N1CCCCCC1)n2CC(N)=O	-25%[1.46 µM]	-7%
COc1ccnc(Oc2cccc(C(F)(F)F)c2)c1C(=O)N/C=N/OCc1ccccc1F	-13%	3%
COc1ccc(CC(=O)NCC(=O)N/N=C/c2ccco2)cc1	-18%	-3%
COc1ccc(CCN2C(=O)CCC2(C)c2nnnn2-c2c(C)cccc2C)cc1OC (centres undefined)	-9%	-9%
COC(=O)C1C(OC)=CC(=O)C2CCCCC21 (centres undefined)	-8%	0%
O=C(NC(Cc1ccccc1)C(=O)N1CCN(c2ccc(F)cc2)CC1)c1ccccc1 (centres undefined)	3%	-23%
CCC1CCCCN1C(=O)CCn1c(=O)oc2ccccc21 (centres undefined)	i	-7%
Cc1ccc2c(C)c3ccc4ccccc4c3c[n+]2c1	-10%	-21%
Cn1nc2c3cc(F)ccc3n(Cc3ccc(F)cc3)cc-2c1=O	i	3%
Cc1cccc(C)c1N(CC(=O)NN=C1CCCCCC1)S(C)(=O)=O	-15%[1.46 µM]	-12%
Cc1cccc(Oc2ccccc2NC(=O)CSCC(=O)Nc2cc(C)on2)c1	-27%	-4%
Cn1c(=O)c2c(nc(CO)n2C)n(C)c1=O	-24%	-14%
COc1cccc(/C(=N/O)C2CC2c2ccc(Cl)cc2)c1 (centres undefined)	-14%	-16%
Cc1ccc(NC(=O)CN(C)Cc2cccs2)cc1Cl	-3%	-2%
COc1ccc(C(=O)c2ccccc2)c(O)c1O	-23%	-7%
N=c1c(S(=O)(=O)c2ccc(Cl)cc2)cc2c(=O)n3ccccc3nc2n1C1CCCC1	i	-1%
C=CCn1c(SCC(=O)N2CCN(c3ccc(F)cc3)CC2)nnc1-c1cccs1	-23%	-19%
O=C(O[C@@H]1[C@H](Cc2ccccc2)NS(=O)(=O)[C@H]2C[C@@H]3C=C[C@]12O3)c1ccccc1Br	-9%	-15%
C=CCNS(=O)(=O)c1cccc(C(C)=O)c1	-12%	-20%
CCCCCc1cc(=O)oc2c(C(CCN3CCN(c4ccccc4)CC3)c3ccc(N(C)C)cc3)c(OC)cc(OC)c12 (centres undefined)	-14%	-19%
CC(=O)c1cn(CCOc2cc(C)ccc2C)c2ccccc12	-13%	-7%
CC(C)CCN(C(=O)c1csnn1)C(C(=O)NC1CCCCC1)c1ccc(F)cc1 (centres undefined)	-1%	-9%
COc1ccccc1-c1ccc2c(c1)C(C)(Cc1cccc(C#N)c1)C(=O)N2 (centres undefined)	4%	-22%
CCCCOC(=O)Oc1ccc2c(=O)c(Oc3cccc(C)c3)coc2c1	-12%	-4%
CC(=O)Nc1ccc(N(CC(=O)NC2CCCCC2)C(=O)Cn2nnc(-c3ccccc3)n2)cc1	-3%	-3%
Fc1cccc(-n2ncc3c2ncn2nc(-c4ccccc4Cl)nc32)c1	-4%	-10%
COc1ccc(C)cc1NC(=O)C(Cc1ccccc1)NS(=O)(=O)c1cccs1 (centres undefined)	-7%	2%
CN(C)c1ccc(CNC(=O)C2CCC(CNc3c(N4CCCCC4)c(=O)c3=O)CC2)cc1 (centres undefined)	10%	-7%
COc1cccc(Oc2ccc(C(F)(F)F)cc2NC(=O)c2cccc(F)c2)c1	-26%	-11%
Cn1ncc(Cl)c1C(=O)NCc1ccco1	-4%	-9%
CCOC(=O)c1c(S(=O)(=O)N2CCC(C(=O)Nc3ncccc3C)CC2)c(C)n(C)c1C	-3%	-9%
CCOC(=O)c1cc(-c2cccc([N+](=O)[O-])c2)n[nH]1	-1%	-13%
CCN(CC)C(=O)c1sc(NC(=O)c2ccc(C)c([N+](=O)[O-])c2)c(C#N)c1C	·	-6%
CC(=O)SCC(C)C(=O)NCc1ccccc1 (centres undefined)	19%	19%
O=C(NNC(=O)C12CC3CC(CC(C3)C1)C2)c1ccncc1	10%	-5%
O=[N+]([O-])c1cccc(/C=N\N=C2c3ccccc3-c3ccccc32)c1O	-19%	-5%

Single values from the entries so far.
COc1ccccc1-c1ccc2c(c1)C(C)(Cc1cccc(C#N)c1)C(=O)N2 (centres undefined) in VACV Venus inh is entered as -22%
CC(C)CCN(C(=O)c1csnn1)C(C(=O)NC1CCCCC1)c1ccc(F)cc1 (centres undefined) in VACV mCherry inh is entered as -1%

Continued:
SMILES	VACV mCherry inh	VACV Venus inh
CCOC(=O)C1(Cc2ccccc2)CCN(C2Cc3ccccc3C2)CC1	-20%	-10%
CC(C)(C)NC(=O)C[C@H]1C[C@H](C(=O)N2CCCCC2)[C@@]2(CCc3ccccc3)c3[nH]c4ccc(Cl)cc4c3CCN2C1=O	-22%	?
Cc1noc(C)c1S(=O)(=O)N1CCC(C(=O)Nc2ccc(Br)cc2)CC1	2%	2%
COc1ccc(OC)c(C2/C(=C(/O)c3cnn(-c4ccccc4)c3C)C(=O)C(=O)N2CCN(C)C)c1 (centres undefined)	?	3%
O=C(O)c1ccc(Cl)cc1NC(=O)C1CCN(S(=O)(=O)c2cccs2)CC1	-2%	-2%
N#Cc1ccc(Oc2cccc3cccnc23)c([N+](=O)[O-])c1	-17%	-11%
OCCN1CCN(C(=S)Nc2ccc(SC(F)F)cc2)CC1	i	-5%
CCc1cc2c(N[C@@H](Cc3ccccc3)C(=O)O)ncnc2s1	-19%	-9%
CCn1nnnc1SCC(=O)c1ccc(C)cc1C	-26%	-15%
Cn1nc(-c2ccc(C(=O)Nc3cccc(C(F)(F)F)c3)cc2)c2ccccc2c1=O	?	-25%
NC(=O)C1CC(=O)N(c2ccc(OCc3ccc([N+](=O)[O-])cc3)cc2)C1 (centres undefined)	-9%	-20%
O=C(c1ccoc1)N1CCCC(N2CCN(c3cccc(C(F)(F)F)c3)CC2)C1 (centres undefined)	-11%	?
Brc1ccc(C=C2C=c3ccccc3=C2)cc1	-14%	-8%
Cc1ccc(C2CC(=O)Oc3cc(C)cc(C)c32)cc1 (centres undefined)	-5%	-7%
COc1ccc(-c2noc(N3CCC(C(=O)N4CCN(c5ccccc5OC)CC4)CC3)n2)cc1	-3%[7.34 µM]	-18%[7.34 µM]
Cc1nnc2sc(SCC(=O)Nc3ccc(Br)cc3)nn2c1=O	-3%	-3%
Cc1cc(C(=O)CN2C(=O)NC(CC(C)C)C2=O)c(C)n1-c1ccccc1F (centres undefined)	-7%	2%
O=C(Nc1ccc(N2CCOCC2)cc1)C1CCCN(S(=O)(=O)c2ccccc2)C1 (centres undefined)	-27%	-21%
Cc1ccc2c(N)c(C#N)sc2n1	-10%	-2%
Cc1oc(-c2ccc(Cl)cc2)nc1CS(=O)CC(=O)NCCCN1CC(C)CC(C)C1 (centres undefined)	?	?
CC(C)NC(=O)N(C)C[C@H]1Oc2ccc(NC(=O)CCN3CCOCC3)cc2C(=O)N([C@H](C)CO)C[C@@H]1C	i	-9%
CC(NC(=O)c1cc(-c2ccccn2)nc2ccc(Cl)cc12)C1CCCO1 (centres undefined)	-12%	4%
CC(=O)N(C)c1ccc(NC(=O)c2cnn(C)c2)cc1	·	-3%
Cc1cc(=O)oc2ccc(OC(C)C(=O)O)cc12 (centres undefined)	-16%	-5%
Cc1nonc1NC(=O)CSc1ccccn1	-2%	10%
COc1ccc(C(=O)N2CCOC2CNC(=O)C(=O)NCc2ccc(F)cc2)cc1 (centres undefined)	i	-14%
COc1nc(N=C(N)N)nc2c(C)cccc12	0%	2%
CSCCC(NC(=O)c1cc(C(C)(C)C)oc1C)C(=O)O (centres undefined)	-1%	-4%
COc1ccc(-n2ccnc2SCC(=O)Nc2cc(C)on2)cc1	-27%	-18%
CN(C)CCCNC(=O)CC1C[C@H](C(=O)N2CCOCC2)[C@@]2(CCC3CCCC3)c3[nH]c4ccccc4c3CCN2C1=O (some centres undefined)	-16%	0%

Compounds above that have a COOH group:
SMILES	VACV mCherry inh	VACV Venus inh
O=C(O)c1ccc(Cl)cc1NC(=O)C1CCN(S(=O)(=O)c2cccs2)CC1	-2%	-2%
CCc1cc2c(N[C@@H](Cc3ccccc3)C(=O)O)ncnc2s1	-19%	-9%
Cc1cc(=O)oc2ccc(OC(C)C(=O)O)cc12 (centres undefined)	-16%	-5%
CSCCC(NC(=O)c1cc(C(C)(C)C)oc1C)C(=O)O (centres undefined)	-1%	-4%

New compounds follow:
SMILES	VACV mCherry inh	VACV Venus inh
CCOc1ccc(NC2OC(CO)C(O)C(O)C2O)c([N+](=O)[O-])c1 (centres undefined)	i	-7%
Cc1c(C(=O)N(C)C)sc(NC(=O)c2cccc([N+](=O)[O-])c2)c1C#N	-9%	-9%
O=C(O)c1cc(-n2c(/C=C\c3ccc(F)cc3)nc3ccccc3c2=O)ccc1Cl	-27%	-28%
CCN(CC)CCN=Cc1c(O)n(Cc2ccccc2)c(=O)[nH]c1=O	0%&-12%	-15%&-16%
CCN(CC)S(=O)(=O)c1ccc2oc(SCC(=O)Nc3cc(C)on3)nc2c1	10µM*	?
CN(C)S(=O)(=O)c1cccc(NC(=O)CO/N=C(\N)c2ccccc2)c1	i	-14%
